Screens as filed in PubChem BioAssay.
VDR inhibitor – Inhibitors of the vitamin D receptor (VDR): qHTS. VDR-SRC2-3 peptide fluorescence polarization, 2 h. Potency, µM, for the others: max response, negative = inhibition, usual class: inhibitors. 0.93% of 400,000 active. AID 504847, 2011. Vitamin D3 receptor (Homo sapiens), P11473; active = well fitted inhibition curve with a large enough effect; inconclusive = small, poorly fitted or top-dose-only effect, or another doubt; inactive = no such curve, though single readings can be large or run the other way; note: series mostly up to about 120 µM
Target sequence (P11473 whole entry, looked up): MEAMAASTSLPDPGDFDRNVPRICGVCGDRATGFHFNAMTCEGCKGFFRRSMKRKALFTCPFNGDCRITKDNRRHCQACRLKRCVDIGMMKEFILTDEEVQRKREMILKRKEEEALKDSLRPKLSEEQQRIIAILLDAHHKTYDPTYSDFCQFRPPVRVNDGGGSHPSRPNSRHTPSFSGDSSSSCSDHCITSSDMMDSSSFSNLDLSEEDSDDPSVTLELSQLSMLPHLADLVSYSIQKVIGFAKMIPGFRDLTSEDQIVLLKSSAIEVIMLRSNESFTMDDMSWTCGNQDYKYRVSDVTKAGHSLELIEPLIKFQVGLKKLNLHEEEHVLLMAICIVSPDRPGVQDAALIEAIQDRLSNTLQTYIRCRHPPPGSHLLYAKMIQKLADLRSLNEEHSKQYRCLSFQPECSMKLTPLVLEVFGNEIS
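Reagent solutions, kept cold and dark, are dispensed first; compounds are then pinned in at 23 nl, plates briefly spun, and incubated 2 h at ambient temperature. Inhibition of VDR–SRC2-3 peptide binding is read by fluorescence polarization.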
Numbers without * were called inactive; ? = inconclusive; & = joins results of further samples. % is set by controls: 0 for no effect and ±100 for the full control effect; potency is the fitted concentration of half-maximal effect.

SMILES | VDR inhibitor
CCc1cc(Cn2nc(-c3ccccc3)cc2C(=O)NCc2ccc(C)cc2)on1 | -10.9%
CC(=NNc1nc2ccccc2o1)c1ncccn1 | -1.5%
CC(C)n1nc(C(=O)Nc2nc3ccc(S(C)(=O)=O)cc3s2)c2ccccc2c1=O | -3.0%
CCCc1cc(=O)oc2cc(OCC(=O)NCCCn3ccnc3)c(Cl)cc12 | 0.8%
COc1cccc(CNC(=O)c2cccs2)c1 | 2.9%
COc1ccc(N)cc1-n1c(C)ccc1C | 23.0%
CCN(CC)CCNC(=O)c1ccc(NC(=O)c2cccc(S(=O)(=O)N3c4ccccc4CC3C)c2)cc1 (configuration not stated) | 6.1%
O=C1NCCOC(=O)[C@@H](Cc2ccc(F)cc2)CC/C=C/C[C@@H]1CC(=O)N(CCO)Cc1ccccc1 | 4.7%
O=c1c2[nH]c3ccccc3c2ncn1CCN1CCNCC1 | 2.7%
Cc1ccc(NS(=O)(=O)c2cc(C(=O)NCCSC3CCCCC3)ccc2C)cc1 | -9.5%
Cn1nnnc1SCC(=O)N1c2ccccc2Sc2ccccc21 | -11.5%
CCNc1nc(NCC)nc(C(=O)NN)n1 | -14.3%
Cc1ccc(NS(=O)(=O)c2cn(C)cn2)cc1 | 1.5%
O=C1C2C3C=CC(C3)C2C(=O)N1/N=C/c1ccc(-c2ccccc2[N+](=O)[O-])o1 (configuration not stated) | -18.9%
COc1ccccc1NC(=O)NC1(C(=O)N2CCCCCC2)CCCCC1 | -18.7%
CC(C)C(NS(=O)(=O)c1ccc2c(c1)OCCCO2)C(=O)O (configuration not stated) | 44.7µM*
O=C1CCCCCN1C(=O)c1cccc(C(=O)N2CCCCCC2=O)c1 | 2.9%
COc1ccc(C)cc1-n1nnnc1SCC1CCCCO1 (configuration not stated) | -19.6%
CC(C)OC(=O)c1cc(NC(=O)C2C3CCC(O3)C2C(=O)O)cc(C(=O)OC(C)C)c1 (configuration not stated) | -0.9%
Cc1ccc[n+](C2C(c3ccc([N+](=O)[O-])cc3)C(C#N)=C([S-])NC2(O)C2CC2)c1 (configuration not stated) | -20.2%
CSc1ccc(CNc2nnnn2C)cc1 | 3.2%
Cc1ccc(C)c(Nc2ncnc3onc(C)c23)c1 | 9.5%
CSc1ccccc1NC(=O)CN(C)C(=O)Cn1c(=O)oc2ccccc21 | 15.2%
COc1ccc(-c2nnc(SCC(=O)NCC3CCCO3)n2C)cc1 (configuration not stated) | 12.1%
CCN(CC)CCCCNc1ncc2cc(-c3cc(OC)cc(OC)c3)c(NC(=O)NC(C)(C)C)nc2n1 | -2.5%&2.2%

Two of the compounds above, as labelled records.
compound: Cn1nnnc1SCC(=O)N1c2ccccc2Sc2ccccc21
  VDR inhibitor: -11.5%
compound: CCNc1nc(NCC)nc(C(=O)NN)n1
  VDR inhibitor: -14.3%

Following part.
SMILES | VDR inhibitor
Cc1ccc(Oc2c(C(N)=O)cc([N+](=O)[O-])cc2[N+](=O)[O-])cc1 | 28.2µM*
COc1ccc(C2=C(O)C(C)N(c3ccccc3)C2=N)cc1OC (configuration not stated) | -7.5%
COc1ccc(N(CCCN2C(=O)c3cccc4cccc(c34)C2=O)C(=O)c2cccc(OC)c2)cc1 | -10.8%
Cc1cc(C)nc(NS(=O)(=O)c2ccc(Br)s2)c1 | -9.5%
CCC(COC)Oc1cc(NCc2ccccc2)c2ncn(C(C)C)c2c1 (configuration not stated) | 22.4µM*
COc1ccc(S(=O)(=O)N2Cc3ccccc3CC2C(=O)Nc2nccs2)cc1OC (configuration not stated) | -0.1%
CCCn1c(-c2ccc(OC)cc2)nc2nc3ccccc3nc21 | -4.4%
COc1ccc(C2NC(=O)NC(C)=C2C(=O)Nc2ccccc2)cc1OC (configuration not stated) | 8.1%
Cc1cc(C)c2c(N)c(C(=O)N3CCN(c4ncccn4)CC3)sc2n1 | -11.5%
Cc1ccc(C)c(N2CCN(C(=S)Nc3ccc4nc(N5CCOCC5)cc(C)c4c3)CC2)c1 | -9.6%
COc1ccc(-c2ccc3ccccc3n2)cc1 | -13.6%
CCOC(=O)c1ccc2c(c1)nc(SCC(=O)c1ccco1)n2CC | ?
Cc1cc(C)n2nc(SCN3C(=O)c4ccccc4C3=O)nc2n1 | -8.9%
CC(=O)c1cc(-c2ccc(F)cc2)n(CCC(=O)NCc2ccc(C)cc2)c1C | 6.3%
CC1=C(C(=O)Nc2ccc(C)cc2C)C(c2cccs2)n2nc(SCc3cccc(C)c3)nc2N1 (configuration not stated) | 4.8%
O=C(CSc1ncnc2[nH]ncc12)Nc1nc(-c2ccc(F)c(F)c2)cs1 | 2.3%
C/C(Cc1ccccc1)=N/NC(=O)CNC(=O)C(c1ccccc1)c1ccccc1 | 23.9%
COc1ccc(CCC(C)N2CCC(CO)(Cc3ccccc3)CC2)cc1 (configuration not stated) | -15.3%
CCOc1ccc(CCNC(=O)Cn2nnc(-c3ccc(OC)c(OC)c3)n2)cc1OCC | 6.9%
CCOC(=O)CSc1nc2cc(C)ccc2cc1C#N | 16.0%
O=C(NCCOCCO)C(=O)Nc1c2c(nn1-c1ccc(F)cc1)CSC2 | 27.3%
CC(=O)c1cccc(NC(=O)COC(=O)C2=COCCO2)c1 | -3.0%
O=C(c1ccc(Cl)cc1)c1oc2ccccc2c1CS(=O)(=O)c1ccccc1 | -6.5%
COc1ccc(NCc2ccc3c(c2)OCO3)cc1Cl | -10.5%
CNC(=O)c1[nH]cnc1C(=O)Nc1cccc(OC)c1 | 6.9%

4 records picked at random from those above:
SMILES | VDR inhibitor
CCC(COC)Oc1cc(NCc2ccccc2)c2ncn(C(C)C)c2c1 (configuration not stated) | 22.4µM*
Cc1cc(C)nc(NS(=O)(=O)c2ccc(Br)s2)c1 | -9.5%
COc1ccc(N(CCCN2C(=O)c3cccc4cccc(c34)C2=O)C(=O)c2cccc(OC)c2)cc1 | -10.8%
COc1ccc(CCC(C)N2CCC(CO)(Cc3ccccc3)CC2)cc1 (configuration not stated) | -15.3%

The results go on.
SMILES | VDR inhibitor
CSc1nc(Cl)cc(N(CCO)CCO)n1 | 1.4%
CCCC(=O)NC(c1ccc(N(C)C)cc1)c1ccc2cccnc2c1O (configuration not stated) | -21.5%
Cc1sc2ncn(CC(=O)NCCCC(=O)N(C)Cc3ccccc3)c(=O)c2c1C | ?
O=C(Cn1cnc(S(=O)(=O)N2CCCCC2)c1)NCc1ccco1 | -10.7%
COc1cc(SC)ccc1C(=O)N(C)Cc1ccccc1 | -12.4%
COc1ccc(Cl)cc1NC(=S)Nc1ccc(Cl)cn1 | 18.0%
Cc1ccc(C(=O)Nc2ccon2)cc1S(=O)(=O)N1CCCC1 | -5.4%
ONCc1ccccc1 | -2.3%
c1cc(Nc2ncnc3sccc23)cc(-c2nnc3n2CCCCC3)c1 | 2.7%
Oc1ccc(/C=N/NC(=S)Nc2cccnc2)cc1O | 5.7%
Cc1ccc(-c2ccc(/C=N/NC(=O)CN3CCCC3)o2)cc1Cl | 13.4%
CC(C)CNC(=O)c1cccc2c1-c1ccccc1C2=O | -13.9%
CCOC(=O)C1CCCN(C2CC(=O)N(c3ccccc3)C2=O)C1 (configuration not stated) | 3.3%
CCOC(=O)/C(C#N)=C1/C=C(C)NC(c2ccccc2O)=N1 | 3.8%
Cc1ccc(Cn2ncc3c(N4CCN(c5ccc(C)cc5)CC4)ncnc32)cc1 | 14.8%
COc1cccc(CN(C)CC(=O)NC(=O)NCc2ccccc2)c1 | 9.2%
CC(C)(C)NC(=O)CSc1nnc(-c2ccccn2)n1-c1ccccc1 | 3.1%
CCNc1nc(NCC)n2c(SCC(=O)c3ccccc3Cl)nnc2n1 | 7.7%
C/C(=N\NC(=O)c1ccccc1F)c1ccccn1 | 0.8%
CC(C)(C)C1CCC(CN2CCC(CN3C(=O)C(=O)NC[C@@H]3Cc3ccccc3)CC2)CC1 (some centres not stated) | -1.1%
COc1ccc(CNC(=O)C(c2ccccc2F)N(C(=O)c2csnn2)C2CC2)cc1 (configuration not stated) | 1.8%
Cc1c(C(=O)NC(C)c2ccccc2)sc2nc3n(c(=O)c12)CCCC3 (configuration not stated) | 10.8%
Cc1cc2oc(=O)cc(CN3CCCCC3C)c2cc1C(C)C (configuration not stated) | -11.1%
Nc1ccc(S(=O)(=O)N2CCCC2C(=O)O)cc1 (configuration not stated) | -27.0%
O=S(=O)(/C=C/c1ccccc1)NCCc1ccccn1 | -4.3%
SMILES | VDR inhibitor
Cc1ccc(-c2nc3ccccc3c(=O)o2)cc1 | -4.0%
Cc1cc(N/N=C/c2ccccc2)nc(NCc2ccccc2)n1 | 0.8%
Fc1ccc(-c2ccc(CNCc3ccccn3)o2)cc1Cl | -0.7%
Fc1cccc(Cl)c1-c1nnc2ccc(C(F)(F)F)cn12 | -6.0%
CC(NC(=O)CN1CCN(Cc2cccc(F)c2)CC1)c1ccccc1 (configuration not stated) | -25.6%
Cc1ccc(NC(=O)Cc2nc(CCl)cs2)cc1 | -15.3%
CC(C)[C@H](NC(=O)c1ccccc1)C(=O)OCC(=O)N1CCc2ccccc2C1 | -0.9%
C/C(=N/NC(=O)c1ccc(Cl)cc1Cl)c1cccnc1 | -11.7%
COc1cccc(CNC(=O)Cc2csc(NC(=O)Nc3ccccc3OC)n2)c1 | -16.2%
COc1ccc(-c2nnc(N(C)C(=O)C3CCCO3)s2)cc1 (configuration not stated) | 0.7%
O=C(O)CSc1nc2c(c(C(F)(F)F)n1)CCCC2 | 2.1%&-19.2%
CCc1ccc(-c2nc(SCC(=O)NCC3CCCO3)c(-c3ccc(C)cc3)[nH]2)cc1 (configuration not stated) | -6.2%
CS(=O)(=O)N(CC(=O)N1CCOCC1)c1ccc2c(c1)OCO2 | 2.0%
Cc1cccc(S(=O)(=O)c2cn(C)c3cc(N4CCC(C)CC4)c(F)cc3c2=O)c1 | -1.1%
COc1ccc(C(CC(=O)O)NC(=O)c2cc3cc(Br)ccc3oc2=O)cc1OC (configuration not stated) | 5.5%
Cc1ccc(-n2ncc3c(Nc4ccc5c(c4)OCCO5)ncnc32)cc1C | 21.3%
CCOc1ncccc1C(=O)Nc1cccc(S(=O)(=O)NC2=NCCC2)c1 | 2.6%
Cc1cccc(C)c1NS(=O)(=O)c1cc2c3c(c1)CC(=O)N3CCC2 | -14.3%
COc1ccc(N2C(=O)CC(N3CCN(c4cccc(Cl)c4)CC3)C2=O)cc1 (configuration not stated) | ?
CCCCCCCCCCNC(=O)C(=O)Nc1ccccn1 | 2.9%
CCC(NC(=O)c1ccc([N+](=O)[O-])cc1[N+](=O)[O-])c1ccccc1 (configuration not stated) | 26.8%
O=c1nc(/C=C/c2cc([N+](=O)[O-])ccc2Cl)cc(C(F)(F)F)[nH]1 | ?
Cc1ccc(CNS(=O)(=O)c2ccc3c(c2)NC(=O)CS3)cc1 | -7.6%
Cc1cccc(C(=O)O/N=C2/CC3CCC2(C)C3(C)C)c1 (configuration not stated) | 10.9%
CCCc1ccc(-c2cc(C(=O)NN3CCOCC3)c3ccccc3n2)cc1 | 6.0%
SMILES | VDR inhibitor
COc1ccc(NC(=O)CN(C)C(=O)CCCc2nc3ccccc3s2)cc1 | -17.2%
CCCCN(CC)CCNC(=O)CNC(=O)Cn1ccc2ccccc2c1=O | 0.3%
O=C(COC(=O)/C=C/c1ccc(F)cc1)Nc1cccc(S(=O)(=O)N2CCCC2)c1 | -7.0%
COc1ccc2cc(CCNS(=O)(=O)c3ccc(NC(C)=O)cc3)c(=O)[nH]c2c1 | -15.4%
C[C@H](CO)N1C[C@H](C)[C@@H](CN(C)C(=O)Nc2ccc(C(F)(F)F)cc2)Oc2c(NS(=O)(=O)c3ccc(F)cc3)cccc2C1=O | 6.8%
N#Cc1cccc(NC(=O)N2CCC3(CC2)CCN(C(=O)c2cccc(F)c2)CC3)c1 | 13.8%
Cc1nnc(SCC(=O)NCCN2C(=O)CSC2=O)n1-c1ccccc1 | 0.1%
O=C(O)c1cc(-c2ccc(/C=C3/SC(=S)N(Cc4ccccc4)C3=O)o2)ccc1Cl | -20.4%
Cn1c(=O)[nH]c(=O)c2c1nc([N+](=O)[O-])n2Cc1ccccc1 | ?
CCOC(=O)c1c(CN2CCN(C)CC2)oc2ccc(OC)cc12 | 11.0%
CCOCCn1c(N2CCN(c3ccccc3)CC2)nc2c1c(=O)[nH]c(=O)n2C | -3.6%
Cc1ccc2nc(NC(=O)CSc3cc(C)[nH]c(=O)n3)sc2c1 | 2.3%
COc1ccc(CCNc2ncnc3c2c(C)c(C)n3CCO)cc1OC | ?
COc1ccc(Nc2nc(NCCO)nc(N3CCCC3)n2)cc1 | -11.4%
Cc1cc(C(=O)COc2ccccc2C(N)=O)c(C)n1CC1CCCO1 (configuration not stated) | 7.2%
O=C(NCCOc1ccccc1)C1CCCCC1 | -4.6%
CCCOc1ccc(-c2nc(N)n[nH]2)cc1 | -3.0%
CCN1CCN(c2cc(C)c3cc(NC(=S)N4CCN(c5ccc(F)cc5)CC4)ccc3n2)CC1 | 1.8%
Cc1ccc(S(=O)(=O)N2CCN(CCOc3ccccc3)CC2)cc1 | -2.8%
Cc1ccc(Sc2ccc(C(=O)N3CCOCC3)cc2[N+](=O)[O-])cc1 | -0.7%
COc1ccc(C(=O)NC(CC(=O)O)c2cc([N+](=O)[O-])ccc2Cl)c(SC)c1 (configuration not stated) | 8.9%
COc1cc(OC)c(NC(=O)Cn2cnc3sc(C)c(S(=O)(=O)N4CCOCC4)c3c2=O)cc1Cl | -7.9%
C=CCNc1nc(N(c2ccccc2)c2ccccc2)nc(-n2ccnc2)n1 | -9.2%

Structural class, those above containing a tert-butyl group (3)
SMILES | VDR inhibitor
CCN(CC)CCCCNc1ncc2cc(-c3cc(OC)cc(OC)c3)c(NC(=O)NC(C)(C)C)nc2n1 | -2.5%&2.2%
CC(C)(C)NC(=O)CSc1nnc(-c2ccccn2)n1-c1ccccc1 | 3.1%
CC(C)(C)C1CCC(CN2CCC(CN3C(=O)C(=O)NC[C@@H]3Cc3ccccc3)CC2)CC1 (some centres not stated) | -1.1%

This is a subset; count on the stated rates, not on these rows.
